BJeLR viability: BJeLR cell viability loss; BJeLR (HRASV12) viability, CellTiter-Glo ATP luminescence, 48 h; reference of the scale not given here; inhibition, % (test concentration not listed); actives 0.17% (n = 300,000);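 active means replicate mean above 50%; inconclusive means above 50% but judged a plate artefact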;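 further: 50 nL library stock added to about 25 µL; numbers are from one replicate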
PrP 5UTR inh: suppresses PrP 5' UTR mRNA reporter expression; cell-based PrP 5' UTR mRNA reporter, plate reader; inhibition, % (concentration not given with the values); actives 0.35% (n = 340,000); AID 488862;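 active means every replicate at 50% or more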;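 further: 0 = median of the neutral control wells; tested in H4 reporter cells; numbers are from one replicate; inactives centre near -14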
Mtb hypoxia inh: reduces hypoxia-regulated biosensor signal in M. tuberculosis; M. tuberculosis hypoxia-regulated fluorescent reporter, fluorescence; actives 0.1% (n = 300,000); fluorescence inhibition, % (test concentration not listed);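 active means 35 to 45% if threefold the growth effect, above 45% if 1.5-fold the growth effect; inactive means the rest, general growth blockers included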;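 further: wells of about 50 µL received 100 nL stock; 0% = vehicle wells and 100% = reference inhibitor wells; whole bacteria with a GFP reporter of the hypoxia response; strong numbers were not always called active; many hits fall short of the cut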
Bead autofluor: flagged as autofluorescent in microsphere protease counterscreen. compound autofluorescence counterscreen, microsphere flow cytometry; hits give high values. actives 3.1% (n = 360,000). fluorescence intensity (test concentration not listed);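 active means at least 3 SD above the mean of all compounds, about 16000 in these data; inconclusive means too few beads counted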;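 further: 100 nL of 1 mM stock went into each well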
Sa RN4220 lethal: S. aureus RN4220 growth inhibition. OD600, 16 h. inhibition, % (concentration not given with the values). actives 0.33% (n = 330,000). AID 1259311;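 active means z-score of -3 or lower and OD600 up to 0.18 on both plates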;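 further: plate controls were untreated cells for no effect and reference antibiotic for full effect; stock transfer was 100 nL into about 80 µL; one replicate is shown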
Sa ugtP lethal: growth inhibition of S. aureus ugtP deletion strain. growth inhibition, % (concentration not given with the values). S. aureus RN4220 ugtP deletion, OD600 growth, 16 h; some inactives read as strong as hits. actives 0.54% (n = 330,000);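 active means z-score under -3 and OD600 up to 0.15 on both plates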;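 further: plate controls were untreated wells for no effect and antibiotic for full effect; wells of about 80 µL received 100 nL stock; the first replicate is given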
Mtb hypoxia inh growth: recorded beside Mtb hypoxia inh, whose call it bears; growth inhibition, %; measured here: M. tuberculosis growth (absorbance);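 0% = vehicle and 100% = reference antibiotic; read after six days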
Active calls of the source: *.

What do the screens show for `O=C(c1cc(S(=O)(=O)N2CCOCC2)ccc1F)N1CCCc2ccccc21`?
BJeLR viability: 0.0; PrP 5UTR inh: -13.0; Mtb hypoxia inh: 6.4; Bead autofluor: 2852; Sa RN4220 lethal: -6.7; Sa ugtP lethal: -4.6; Mtb hypoxia inh growth: 2.8

What do the screens show for `CN(C)CCNC(=O)c1sc2nc(-c3ccccc3)cc(C(F)(F)F)c2c1N`?
BJeLR viability: 3.5; PrP 5UTR inh: -25.0; Mtb hypoxia inh: 18.7; Bead autofluor: 4395; Sa RN4220 lethal: -2.2; Sa ugtP lethal: 1.7; Mtb hypoxia inh growth: 5.5

What do the screens show for `O=C(CS(=O)(=O)c1ccccc1)Nc1ccc(N2CCOCC2)cc1`?
BJeLR viability: 0.7; PrP 5UTR inh: -27.9; Mtb hypoxia inh: 8.5; Bead autofluor: 4228; Sa RN4220 lethal: 5.1; Sa ugtP lethal: 9.4; Mtb hypoxia inh growth: 8.5

What do the screens show for `CCN(CC)CCNC(=O)c1ccc(NC(=O)c2cc(S(=O)(=O)N3CCCCC3)ccc2C)cc1`?
BJeLR viability: 1.9; PrP 5UTR inh: -8.0; Bead autofluor: inconclusive

How did Nc1cc(N)nc(SCc2nnnn2-c2ccc(Cl)cc2)n1 do in these assays?
BJeLR viability: -7.0; PrP 5UTR inh: -10.5; Mtb hypoxia inh: 4.2; Bead autofluor: 2100; Sa RN4220 lethal: -1.4; Sa ugtP lethal: 5.0; Mtb hypoxia inh growth: 1.0

How did COc1ccc(NC(=O)CN2CCC(C(=O)c3ccc(C)cc3)CC2)c(OC)c1 do in these assays?
BJeLR viability: -4.1; PrP 5UTR inh: -24.6; Mtb hypoxia inh: 4.2; Bead autofluor: 3743; Sa RN4220 lethal: 1.8; Sa ugtP lethal: 7.0; Mtb hypoxia inh growth: 7.1

What do the screens show for `CN(Cc1cccs1)C(=O)Cn1cnc2ccccc2c1=O`?
BJeLR viability: 7.6; PrP 5UTR inh: -10.7; Mtb hypoxia inh: -1.1; Bead autofluor: 4506; Sa RN4220 lethal: 3.8; Sa ugtP lethal: 2.0; Mtb hypoxia inh growth: -0.6

Results for O=C1CCN(Cc2ccccc2)CCN1CCSc1ccccc1 ?
BJeLR viability: 7.4; PrP 5UTR inh: -25.9; Mtb hypoxia inh: 1.5; Bead autofluor: 4418; Sa RN4220 lethal: 2.6; Sa ugtP lethal: 1.8; Mtb hypoxia inh growth: 5.4

Results for CCc1cccc(C)c1NC(=O)COC(=O)Cc1ccsc1 ?
BJeLR viability: 2.5; PrP 5UTR inh: -18.5; Mtb hypoxia inh: 14.7; Bead autofluor: 1952; Sa RN4220 lethal: 6.8; Sa ugtP lethal: 9.9; Mtb hypoxia inh growth: 4.5

How did O=C(COC(=O)c1ccc2[nH]c3c(c2c1)CCCC3)Nc1ccc(Cl)cc1Cl do in these assays?
BJeLR viability: -6.5; PrP 5UTR inh: -20.0; Bead autofluor: 2080

How did CCCC(=O)NN=C1CS(=O)(=O)N(C)c2ccsc21 do in these assays?
Mtb hypoxia inh: 11.2; Sa RN4220 lethal: 7.1; Sa ugtP lethal: 5.0; Mtb hypoxia inh growth: 0.2

Results for COC(=O)Cc1cc(=O)[nH]c(/N=C(\N)Nc2ccccc2)n1 ?
BJeLR viability: 12.8; PrP 5UTR inh: -0.9; Bead autofluor: 21352*

What do the screens show for `CC(C)CCNC(=O)COc1ccc2c3c(c(=O)oc2c1)CCC3`?
BJeLR viability: -11.3; PrP 5UTR inh: 18.2; Mtb hypoxia inh: 1.5; Bead autofluor: 10493; Sa RN4220 lethal: 1.0; Sa ugtP lethal: -1.9; Mtb hypoxia inh growth: 7.7

Results for CCOc1ccc(NC(=O)CN(C)C(=O)CC2OC(=O)c3ccccc32)cc1OCC (configuration not stated) ?
BJeLR viability: -5.1; PrP 5UTR inh: -13.7; Mtb hypoxia inh: 4.8; Bead autofluor: inconclusive; Sa RN4220 lethal: 2.2; Sa ugtP lethal: 1.1; Mtb hypoxia inh growth: 3.4

Results for CC(C)N1CCc2c(sc(NC(=O)CCS(=O)(=O)c3ccccc3)c2C#N)C1 ?
BJeLR viability: 2.8; PrP 5UTR inh: -22.0; Mtb hypoxia inh: 10.6; Bead autofluor: 4604; Sa RN4220 lethal: 1.3; Sa ugtP lethal: 2.9; Mtb hypoxia inh growth: 8.3

Results for CCN1CCc2nc(NC(=O)c3ccc(S(=O)(=O)N(C)C)cc3)sc2C1 ?
BJeLR viability: 2.5; PrP 5UTR inh: -27.0; Mtb hypoxia inh: 13.2; Bead autofluor: 5150; Sa RN4220 lethal: 6.4; Sa ugtP lethal: -0.1; Mtb hypoxia inh growth: -0.8

What do the screens show for `CCCCC(=O)Nc1cccc(-c2nnc(-c3ccccc3)o2)c1`?
BJeLR viability: -4.7; Mtb hypoxia inh: 1.6; Bead autofluor: 8182; Sa RN4220 lethal: 0.1; Sa ugtP lethal: -23.0; Mtb hypoxia inh growth: 2.3

What do the screens show for `CCC(Sc1ccc2nnc(-c3cccnc3)n2n1)C(=O)O` (configuration not stated)?
BJeLR viability: -7.7; PrP 5UTR inh: -15.9; Mtb hypoxia inh: 8.3; Bead autofluor: 4199; Sa RN4220 lethal: 0.8; Sa ugtP lethal: 8.5; Mtb hypoxia inh growth: 1.4

What do the screens show for `COc1ccc(NS(=O)(=O)c2ccc3c(c2)OCCO3)cc1OC`?
BJeLR viability: 5.0; PrP 5UTR inh: -23.6; Mtb hypoxia inh: -0.7; Bead autofluor: 4983; Sa RN4220 lethal: 6.5; Sa ugtP lethal: 11.3; Mtb hypoxia inh growth: -0.8

What do the screens show for `Cc1cc2ncn(/N=C/c3ccc4c(c3)OCO4)c2cc1C`?
BJeLR viability: 7.5; PrP 5UTR inh: -18.7; Bead autofluor: 4766

How did CC(=O)Nc1ccc(Br)c2ccccc12 do in these assays?
BJeLR viability: -0.9; PrP 5UTR inh: -3.8; Mtb hypoxia inh: 12.7; Bead autofluor: 2523; Sa RN4220 lethal: 1.5; Sa ugtP lethal: 10.0; Mtb hypoxia inh growth: 12.0

What do the screens show for `CCc1ccc(OCC(=O)NC(=S)Nc2ccc(S(=O)(=O)NC3CCCCC3)cc2)cc1`?
BJeLR viability: 13.0; PrP 5UTR inh: -3.4; Bead autofluor: 2217; Sa RN4220 lethal: 2.1; Sa ugtP lethal: 13.2

How did c1cc(CNCCc2ccc3c(c2)OCO3)ccn1 do in these assays?
BJeLR viability: -20.1; PrP 5UTR inh: -56.6; Mtb hypoxia inh: -0.1; Bead autofluor: 3865; Sa RN4220 lethal: 2.0; Sa ugtP lethal: 7.9; Mtb hypoxia inh growth: -0.5

How did CCC(NC(=O)OC(C)(C)C)C(=O)Oc1cc(C)cc2oc(=O)c3c(c12)CCC3 (configuration not stated) do in these assays?
BJeLR viability: -9.1; PrP 5UTR inh: -15.5; Mtb hypoxia inh: 4.5; Bead autofluor: 20994*; Sa RN4220 lethal: -2.8; Sa ugtP lethal: -3.5; Mtb hypoxia inh growth: 9.0

What do the screens show for `COc1ccccc1C=NNc1nncc2ccccc12`?
Mtb hypoxia inh: 3.5; Sa RN4220 lethal: 2.1; Sa ugtP lethal: 3.1; Mtb hypoxia inh growth: 11.5

How did CCc1c(C(=O)NN=Cc2ccsc2)csc1C do in these assays?
Mtb hypoxia inh: 3.0; Sa RN4220 lethal: 8.5; Sa ugtP lethal: 5.2; Mtb hypoxia inh growth: 4.3

How did CC(=O)Oc1ccc(-c2cccc(C(=O)O)c2)cc1 do in these assays?
BJeLR viability: -4.3; PrP 5UTR inh: -13.1; Mtb hypoxia inh: 3.9; Bead autofluor: 12552; Sa RN4220 lethal: 4.4; Sa ugtP lethal: 7.8; Mtb hypoxia inh growth: 4.1

Results for CN(C)/C=C(/C(=O)c1ccc(Cl)cc1)n1cncn1 ?
BJeLR viability: 3.7; PrP 5UTR inh: 0.2; Mtb hypoxia inh: 3.5; Bead autofluor: 5189; Sa RN4220 lethal: 0.7; Sa ugtP lethal: 1.6; Mtb hypoxia inh growth: 9.5

What do the screens show for `CCOC(=O)c1c(NC(=O)c2c(C(=O)O)cccc2[N+](=O)[O-])sc2c1CCCC2`?
BJeLR viability: 8.5; PrP 5UTR inh: -12.4; Mtb hypoxia inh: 10.0; Bead autofluor: 3711; Sa RN4220 lethal: 2.5; Sa ugtP lethal: 8.2; Mtb hypoxia inh growth: 12.3

How did CCN(c1ccccc1)S(=O)(=O)c1cc(C(=O)NCc2ccccn2)ccc1C do in these assays?
PrP 5UTR inh: -23.0; Mtb hypoxia inh: 9.9; Bead autofluor: 6334; Sa RN4220 lethal: 5.6; Sa ugtP lethal: 1.1; Mtb hypoxia inh growth: 1.5

How did O=C(Nc1cccc(F)c1)NC1CCCc2ccccc21 (configuration not stated) do in these assays?
BJeLR viability: 9.0; PrP 5UTR inh: -0.7; Bead autofluor: 5967

How did CC1COc2ccccc2N1C(=O)c1cccnc1Cl (configuration not stated) do in these assays?
BJeLR viability: 1.5; PrP 5UTR inh: -33.4; Mtb hypoxia inh: 5.6; Bead autofluor: 5505; Sa RN4220 lethal: 1.8; Sa ugtP lethal: -0.6; Mtb hypoxia inh growth: 2.5

How did CC1=CC(C)(C)Nc2ccc(OC(=O)CN3C(=O)c4ccccc4C3=O)cc21 do in these assays?
BJeLR viability: 1.3; PrP 5UTR inh: -1.0; Mtb hypoxia inh: 2.6; Bead autofluor: 2023; Sa RN4220 lethal: 3.1; Sa ugtP lethal: 7.0; Mtb hypoxia inh growth: 4.3

How did CCc1ccc(C(O)(C(C)C)C(CN2CCOCC2)c2ccccc2)cc1 (configuration not stated) do in these assays?
BJeLR viability: 3.1; PrP 5UTR inh: -3.0; Mtb hypoxia inh: 13.3; Bead autofluor: 3840; Sa RN4220 lethal: 4.9; Sa ugtP lethal: -4.2; Mtb hypoxia inh growth: -2.0

How did COC(=O)c1cc(S(=O)(=O)NCC(C)c2ccccc2)cn1C (configuration not stated) do in these assays?
BJeLR viability: 12.0; PrP 5UTR inh: -11.2; Mtb hypoxia inh: 0.5; Bead autofluor: 3873; Sa RN4220 lethal: 5.6; Sa ugtP lethal: 9.9; Mtb hypoxia inh growth: -4.6

How did CC=C(C)C(=O)OC(c1cc2ccc(=O)oc2cc1OC)C(O)C(C)(C)O (configuration not stated) do in these assays?
Mtb hypoxia inh: 8.9; Sa RN4220 lethal: 7.2; Sa ugtP lethal: -7.4; Mtb hypoxia inh growth: 14.3

How did FC(F)(F)c1ccccc1NC(=S)NN=C1CCCCCC1 do in these assays?
BJeLR viability: 2.0; Mtb hypoxia inh: -3.9; Sa RN4220 lethal: 0.4; Sa ugtP lethal: 9.1; Mtb hypoxia inh growth: -4.8

What do the screens show for `C=CCn1cc(Cl)cc(C(=O)Nc2ccccc2)c1=O`?
BJeLR viability: 0.6; PrP 5UTR inh: -9.2; Mtb hypoxia inh: 4.1; Bead autofluor: 3927; Sa RN4220 lethal: 1.0; Sa ugtP lethal: -0.6; Mtb hypoxia inh growth: -3.5

What do the screens show for `ClCCN1C2=NCCCN2c2ccccc21`?
BJeLR viability: 1.5; PrP 5UTR inh: -11.3; Mtb hypoxia inh: 10.8; Bead autofluor: 4697; Sa RN4220 lethal: 7.6; Sa ugtP lethal: 3.2; Mtb hypoxia inh growth: 3.7

Results for CCCCn1c(N)c(N(CCOC)C(=O)COC(=O)COc2c(C)cc(C)cc2C)c(=O)[nH]c1=O ?
BJeLR viability: -9.3; PrP 5UTR inh: -3.2; Mtb hypoxia inh: -6.3; Sa RN4220 lethal: -1.8; Sa ugtP lethal: -0.9; Mtb hypoxia inh growth: -20.6

Filtered by structure, the compounds so far containing a CF3 group (2)
What do the screens show for `CN(C)CCNC(=O)c1sc2nc(-c3ccccc3)cc(C(F)(F)F)c2c1N`?
BJeLR viability: 3.5; PrP 5UTR inh: -25.0; Mtb hypoxia inh: 18.7; Bead autofluor: 4395; Sa RN4220 lethal: -2.2; Sa ugtP lethal: 1.7; Mtb hypoxia inh growth: 5.5

How did FC(F)(F)c1ccccc1NC(=S)NN=C1CCCCCC1 do in these assays?
BJeLR viability: 2.0; Mtb hypoxia inh: -3.9; Sa RN4220 lethal: 0.4; Sa ugtP lethal: 9.1; Mtb hypoxia inh growth: -4.8

Screening data (PubChem)

An unsorted share of the library, and some 4% of all compounds hit somewhere here.
